Menin-MLL FL inh = inhibitors of human menin-MLL interaction, wild-type MLL peptide; Fluorescence polarization, fluorescein-MLL peptide displacement from menin; FP activity change, % at 61.4 µM; 290,000 tested, under 10 active; AID 1766; inconclusive = falling polarisation curve, or a change in total fluorescence; inactive = total fluorescence flat and polarisation flat or rising; no compound was filed as active; the % refers to the polarisation; negative = inhibition;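 further: % of control where 0% means no effect; inhibitors lower the polarisation; unlabelled MLL peptide was the positive control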
* hit, by the source's call; u = inconclusive; & = joins results of further samples; [ ] = another dose, or the depositor's remark. The list is partial; rates above refer to the full screens.

Menin-MLL FL inh	canonical_smiles
-1.3&-0.5	CN(CCOc1ccc(NS(C)(=O)=O)cc1)CCc1ccc(NS(C)(=O)=O)cc1
-2.7	Cc1c(C(C)C)c(=O)n(-c2ccccc2)n1C
1.2	CCc1cc(-c2n[nH]c(C)c2-c2ccc3c(c2)OCCO3)c(O)cc1O
0.6	C[C@@H]1C[C@H]2[C@@H]3C[C@H](F)C4=CC(=O)C(Cl)=C[C@]4(C)[C@@]3(F)[C@@H](O)C[C@]2(C)[C@@]1(O)C(=O)CO
-2.0	COC(=O)c1ccccc1C(=O)c1ccc(OCCN2CCCCC2)cc1
-6.8[24.8 µM]	CN(C)CCO[C@](C)(c1ccccc1)c1ccccn1
-2.3	CC1(C)OC2CC(=O)OC[C@@]23C1CC(=O)[C@]1(C)C3CC[C@@]2(C)C(c3ccoc3)OC(=O)C3O[C@@]321 (stereo not given in full)
0.1&0.9	NC(=O)c1ccc(-c2nc(-c3ccc4c(c3)OCO4)c(-c3ccccn3)[nH]2)cc1
-3.7[24.8 µM]	C[C@@H]1[C@H](C)CC[C@@]2(C(=O)O[C@H]3O[C@@H](CO[C@H]4O[C@@H](CO)[C@@H](O[C@H]5O[C@@H](C)[C@@H](O)[C@@H](O)[C@@H]5O)[C@@H](O)[C@@H]4O)[C@@H](O)[C@@H](O)[C@@H]3O)CC[C@]3(C)C(=CC[C@H]4[C@@]5(C)C[C@@H](O)[C@@H](O)[C@](C)(CO)[C@@H]5CC[C@@]43C)[C@@H]12
2.9&4.7	CC(C)(CO)[C@@H](O)C(=O)NCCCO
u	Oc1ccc([C@@H]2CNCCc3c2cc(O)c(O)c3Cl)cc1
1.3	O=C(OC1C[C@@H]2CC3C[C@H](C1)N2CC3=O)c1c[nH]c2ccccc12 (stereo not given in full)
5.4	COc1ccc(-c2oc3c(CC=C(C)C)c(O[C@H]4OC(CO)C(O)C(O)C4O)cc(O)c3c(=O)c2O[C@@H]2OC(C)C(O)C(O)C2O)cc1 (stereo not given in full)
-0.6	CCN1CC(CCN2CCOCC2)C(c2ccccc2)(c2ccccc2)C1=O (stereo not given)
-2.5	COC(=O)Nc1nc2ccc(S(=O)c3ccccc3)cc2[nH]1 (stereo not given)
1.1	CC[C@@]12CCCN3CCc4c(n(c5ccccc45)[C@](O)(C(=O)OC)C1)C32 (stereo not given in full)
-2.8	CN1CCN(C(=O)C2CCCCC2)CC1
0.3[24.8 µM]	C[C@@H](Cc1cccc(C(F)(F)F)c1)NCCOC(=O)c1ccccc1
-0.4	NC(=O)c1ccc([N+](=O)[O-])cc1Cl
3.3	NC(=O)NC(=O)Cc1ccccc1
-1.8[24.8 µM]	CCCN(CCC)C(=O)[C@@H](CCC(=O)O)NC(=O)c1ccccc1
-1.7	Nc1ccc(S(=O)(=O)NCc2ccccc2)cc1
u	c1ccc(CNCCNCc2ccccc2)cc1
-2.5	Cc1ccc(C(=O)C(C)CN2CCCCC2)cc1 (stereo not given)
1.5[24.8 µM]	CCn1cc(C(=O)O)c(=O)c2cc(F)c(N3CCN[C@@H](C)C3)c(F)c21

By substructure, those above with nitrogen in an aromatic ring (8)
Menin-MLL FL inh	canonical_smiles
-2.7	Cc1c(C(C)C)c(=O)n(-c2ccccc2)n1C
1.2	CCc1cc(-c2n[nH]c(C)c2-c2ccc3c(c2)OCCO3)c(O)cc1O
-6.8[24.8 µM]	CN(C)CCO[C@](C)(c1ccccc1)c1ccccn1
0.1&0.9	NC(=O)c1ccc(-c2nc(-c3ccc4c(c3)OCO4)c(-c3ccccn3)[nH]2)cc1
1.3	O=C(OC1C[C@@H]2CC3C[C@H](C1)N2CC3=O)c1c[nH]c2ccccc12 (stereo not given in full)
-2.5	COC(=O)Nc1nc2ccc(S(=O)c3ccccc3)cc2[nH]1 (stereo not given)
1.1	CC[C@@]12CCCN3CCc4c(n(c5ccccc45)[C@](O)(C(=O)OC)C1)C32 (stereo not given in full)
1.5[24.8 µM]	CCn1cc(C(=O)O)c(=O)c2cc(F)c(N3CCN[C@@H](C)C3)c(F)c21

Later entries.
Menin-MLL FL inh	canonical_smiles
-4.0	CCCCCCCCCCOCC(O)CN (stereo not given)
-25.2	COc1ccc([C@@H]2CNC(=O)C2)cc1OC1CCCC1
1.8	CCCCN(CCCC)CC(O)c1cc(Cl)cc2c1-c1ccc(Cl)cc1/C2=C/c1ccc(Cl)cc1 (stereo not given)
0.0	CN1CCC(Nc2ncc3ncnc(Nc4ccc(F)c(Cl)c4)c3n2)CC1
u	Cc1cc(O)c2c(c1)C(=O)c1cccc(O)c1C2=O
0.5	CC(=O)O[C@]1(C(C)=O)CC[C@H]2C3C=C(Cl)C4=CC(=O)[C@@H]5C[C@H]5[C@]4(C)C3CC[C@@]21C (stereo not given in full)
-0.9&-10.1	Cc1cn([C@H]2C[C@H](O)[C@@H](CO)O2)c(=O)[nH]c1=O
u	CN1CCN(c2cc3c(cc2F)c(=O)c(C(=O)O)cn3-c2ccc(F)cc2)CC1
-3.1[24.8 µM]	CCN(CCCCOC(=O)c1ccc(OC)c(OC)c1)[C@@H](C)Cc1ccc(OC)cc1
-0.8[24.8 µM]	C[C@H]1C[C@@H]2[C@H]3CCC4=CC(=O)C=C[C@@]4(C)[C@@]3(Cl)[C@@H](O)C[C@]2(C)[C@]1(OC(=O)c1ccco1)C(=O)CCl
-1.0	COc1cc2[nH]c(=O)[nH]c(=O)c2cc1OC
4.0&-2.0	CN=C(NC#N)Nc1ccc(C2=NNC(=O)CC2C)cc1 (stereo not given)
u	O=C(O)[C@@H]1[C@@H]2C[C@H]3c4[nH]c5ccccc5c4CCN3C[C@@H]2CC[C@@H]1O
0.7	OCCOCCOCCO
u	CC(C)[C@@H]1C(=O)N(S(C)(=O)=O)[C@H]2CCN(C(=O)/C=C\CN3CCCCC3)[C@@H]12
5.3	O=C(Nc1ccc([N+](=O)[O-])cc1)Nc1ccc([N+](=O)[O-])cc1
6.6&14.8	CC1(C)Oc2ccc(C#N)cc2[C@H](N2CCCC2=O)[C@H]1O
1.3	CC(=O)O[C@@]12CO[C@@H]1C[C@H](O)[C@@]1(C)C(=O)[C@H](O)C3=C(C)[C@@H](OC(=O)[C@H](O)[C@@H](NC(=O)OC(C)(C)C)c4ccccc4)C[C@](O)([C@@H](OC(=O)c4ccccc4)[C@H]21)C3(C)C
-8.7[24.8 µM]	COc1c(O)cc2c(c1O)[C@@H]1O[C@@H](CO)[C@@H](O)[C@@H](O)[C@@H]1OC2=O
-2.1	CCCC(=O)O[C@]1(C(=O)CCl)[C@H](C)C[C@@H]2[C@H]3CCC4=CC(=O)C=C[C@]4(C)[C@@]3(F)C(=O)C[C@@]21C
-1.9	COc1cc2oc(=O)ccc2cc1O

Filtered by structure, those above with an NH in an aromatic ring
Menin-MLL FL inh	canonical_smiles
1.2	CCc1cc(-c2n[nH]c(C)c2-c2ccc3c(c2)OCCO3)c(O)cc1O
0.1&0.9	NC(=O)c1ccc(-c2nc(-c3ccc4c(c3)OCO4)c(-c3ccccn3)[nH]2)cc1
1.3	O=C(OC1C[C@@H]2CC3C[C@H](C1)N2CC3=O)c1c[nH]c2ccccc12 (stereo not given in full)
-2.5	COC(=O)Nc1nc2ccc(S(=O)c3ccccc3)cc2[nH]1 (stereo not given)
-0.9&-10.1	Cc1cn([C@H]2C[C@H](O)[C@@H](CO)O2)c(=O)[nH]c1=O
-1.0	COc1cc2[nH]c(=O)[nH]c(=O)c2cc1OC
u	O=C(O)[C@@H]1[C@@H]2C[C@H]3c4[nH]c5ccccc5c4CCN3C[C@@H]2CC[C@@H]1O

Screening data (PubChem BioAssay)
